# Compound activity: PubChem BioAssay, National Center for Advancing Translational Sciences (NCATS)
# 2A StopGo: lowers the luciferase signal of an FMDV 2A StopGo reporter; human cells with a luciferase reporter of 2A StopGo recoding; control for the full effect not named in the record; Potency, µM (series often up to 57.9 µM), without a hit: top-dose signal change, negative = less light; 1.2% of 410,000 active; active = well fitted falling curve with a large enough effect; inconclusive = small, poorly fitted or top-dose-only effect; inactive = no such curve, though single readings can be large or run the other way; tested in HEK293T cells; also: % is scaled to controls: 0 for no effect and ±100 for the full control effect; nearly all actives have a fitted effect of over 45% in size; luciferase light after 4 h
# NS1 inh: inhibitors of influenza NS1 protein function; S. cerevisiae slowed by influenza A NS1, growth recovery by OD600; Potency, µM (series often up to 46.1 µM), for the others: at the top dose activity, positive = more growth; 0.4% of 270,000 active; also: actives are rising curves; nearly all actives have a fitted effect of over 50% in size
#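 Recovery from NS1-induced slow growth read by OD600 in budding yeast switched to galactose assay medium (pH 6.0, -URA) at 1:100 dilution. Compound 23 nl per well; the matching strain lacking NS1 serves as control.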
# SARS PLP yeast: inhibitors of SARS-CoV papain-like protease in yeast | Potency, µM (titrated, usually from 32.9 µM), without a hit: at the highest dose activity, positive = growth rescue | 0.19% of 330,000 active | S. cerevisiae expressing SARS-CoV PLpro, growth rescue; control for the full effect not named in the record; also: 0% is about no effect; nearly all actives have a fitted effect of over 55% in size; growth read by luminescence after 48 h
# Cruzain inh Det: inhibitors of Trypanosoma cruzi cruzain with detergent. 0.43% of 200,000 active. Potency, µM, without a hit: max response, negative = inhibition, hits mostly inhibitors. P25779. purified cruzain, Z-FR-AMC fluorescence, 0.01% Triton; active = well fitted curve in the direction sought with a large enough effect; inconclusive = small, poorly fitted or top-dose-only effect, or another doubt; inactive = no such curve, though single readings can be large; an effect the other way counts as inactive or inconclusive;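 also: plate controls were neutral wells for no effect and buffer without enzyme for full effect; nearly all actives have a fitted effect of over 40% in size; top concentration of the series not given in the record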
# Target sequence (P25779 123-467 limits assumed): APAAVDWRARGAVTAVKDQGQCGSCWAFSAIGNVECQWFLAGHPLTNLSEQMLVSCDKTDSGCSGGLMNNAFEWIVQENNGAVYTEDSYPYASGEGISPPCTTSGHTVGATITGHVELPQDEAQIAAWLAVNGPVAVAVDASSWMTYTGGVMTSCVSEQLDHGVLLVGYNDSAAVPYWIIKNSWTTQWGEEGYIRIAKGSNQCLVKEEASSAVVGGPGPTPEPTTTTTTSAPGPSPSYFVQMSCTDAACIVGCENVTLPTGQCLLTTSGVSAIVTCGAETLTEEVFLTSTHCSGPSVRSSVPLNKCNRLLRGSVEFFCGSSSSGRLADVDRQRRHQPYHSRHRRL
#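 Enzyme 1.5 nM, Z-FR-AMC 2 uM, NaOAc 100 mM pH 5.5, DTT 5 mM, Triton X-100 0.01%; 15 min RT compound preincubation; kinetic ex360/em450, 60 s delta.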
# RE007 growth inh: less growth of the S. pombe RE007 Vpr strain; S. pombe RE007 Vpr strain, BacTiter-Glo ATP luminescence, 24 h; control for the full effect not named in the record; Potency, µM (top dose mostly 92.2 µM), without a hit: at the top dose activity change, negative = less growth; 0.21% of 360,000 active; active = well fitted falling curve with a large enough effect; inconclusive = small, poorly fitted or top-dose-only effect; inactive = no such curve, though single readings can be large or run the other way;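 also: % is scaled to controls: 0 for no effect and ±100 for the full control effect; nearly all actives have a fitted effect of over 50% in size; the assay follows cell death caused by Vpr and the record does not say whether a fall means rescue or toxicity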
#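 Fission yeast strain RE007, carrying one chromosomally integrated HIV-1 vpr copy, was seeded at OD 0.01 in PMG+AL medium with 23 nL pinned compound. After 24 h at 30 °C and 99% humidity, viability was read by BacTiter-Glo luminescence.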
# Lassa entry inh: inhibitors of Lassa virus binding or cell entry; AID 540256; 1.2% of 300,000 active; Lassa virus pseudotype entry inhibition, cell reporter; control for the full effect not named in the record; Potency, µM (top dose mostly 37.9 µM), for the others: at the highest dose activity change, negative = inhibition, hits mostly inhibitors; active means well fitted inhibition curve with a large enough effect; inconclusive means small, poorly fitted or top-dose-only effect, or effect the other way; inactive means flat fitted curve, though single readings scatter; tested in HEK293 cells; also: % is scaled to controls: 0 for no effect and ±100 for the full control effect; nearly all actives have a fitted effect of over 50% in size; luciferase read-out
# Cruzain noTriton: inhibitors of Trypanosoma cruzi cruzain without detergent. purified cruzain, Z-FR-AMC fluorescence, no detergent. P25779. Potency, µM, inactives show max response, negative = inhibition, actives largely listed as inhibitors. 2.3% of 200,000 active; active = well fitted curve in the direction sought with a large enough effect; inconclusive = small, poorly fitted or top-dose-only effect, or another doubt; inactive = no such curve, though single readings can be large; an effect the other way counts as inactive or inconclusive;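 also: plate controls were enzyme without inhibitor for no effect and buffer without enzyme for full effect; nearly all actives have a fitted effect of over 40% in size; top concentration of the series not given in the record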
#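 Purified cruzain at 1.5 nM, pre-incubated 15 min with compound at room temperature in 100 mM sodium acetate pH 5.5, 5 mM DTT, 0.00005% Triton X-100. Reaction started with 2 uM Z-FR-AMC; AMC fluorescence increase over 60 s gives rate.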
# MARV entry inh: Marburg virus entry inhibition; Marburg virus pseudotyped entry inhibition, cell reporter; control for the full effect not named in the record; about a third of the inactives were read at about 46 µM; Potency, µM (titrated, usually from 37.8 µM), for inactives: top-dose activity change, negative = inhibition, hits mostly inhibitors; 1.8% of 300,000 active; AID 540276; active = well fitted inhibition curve with a large enough effect; inconclusive = small, poorly fitted or top-dose-only effect, or effect the other way; inactive = flat fitted curve, though single readings scatter; tested in HEK293 cells; about a fifth of its hits are not listed in these tables; also: % is scaled to controls: 0 for no effect and ±100 for the full control effect; luciferase read-out
# * = called active by the depositor; ? = inconclusive; / = no result given; & = joins results of further samples; [ ] = another dose, or the depositor's remark. Unless noted, calls follow the shape of the dose curve; as a rule, active means well fitted rising curve with a large enough effect; inconclusive means small, poorly fitted or top-dose-only effect; inactive means no such curve, though single readings can be large or run the other way. Potency is read from the fitted curve at half-maximal effect.
SMILES,2A StopGo,NS1 inh,SARS PLP yeast,Cruzain inh Det,RE007 growth inh,Lassa entry inh,Cruzain noTriton,MARV entry inh
CC1CCCC(NC(=O)CSc2n[nH]c(=O)n2Cc2ccccc2)C1C (stereo not drawn),-8.0%,/,7.6%,/,5.1%,/,/,?
Cc1nnc2sc(-c3cccc(F)c3)nn2c1=O,2.7%,5.0%,0.6%,/,-22.4%,0.9%[46.1 µM],/,?
CC(Sc1nnnn1C1CCCC1)C(=O)Nc1cccc(S(=O)(=O)N2CCOCC2)c1 (stereo not drawn),-12.5%,/,8.3%,/,2.9%,-2.2%,/,5.0%
O=C(NC(=S)Nc1ccc(CN2CCCCC2)cc1)c1cc2ccccc2o1,13.3%,-1.7%,1.5%,/,-23.9%,/,/,/
NS(=O)(=O)c1ccc(CCNc2ncnc3c2c(-c2ccccc2)cn3-c2ccc(F)cc2)cc1,15.8µM*,28.1%,-4.0%,-6.9%,1.7%,?,-4.0%,?
COC(=O)c1ccc(C(=O)NC2CCSc3ccccc32)cc1 (stereo not drawn),14.5%,-1.2%,0.7%,/,-1.0%,/,/,/
CCCn1c(N)c(N(CCOC)C(=O)c2cccc(Cl)c2)c(=O)[nH]c1=O,17.6%,-9.0%,4.8%,/,16.6%,5.5%,/,3.4%[46.1 µM]
OCCCCNc1cccc2ccccc12,/,0.7%,-5.6%,-7.8%,-9.5%,16.4%,9.4%,-1.5%&-1.5%
CCC(C)NC(=O)C1=CCN(S(=O)(=O)c2ccc(C)cc2)CC1 (stereo not drawn),-2.6%,2.4%,1.4%,/,0.4%,/,/,/
COc1ccc(CCNC(=O)CCC(=O)N2CCOc3ccc(Cl)cc32)cc1OC,-29.3%,12.6%,9.0%,/,3.0%,/,/,/
COc1ccc(N(CC(=O)N/N=C/c2cccnc2)S(=O)(=O)c2ccc(C)cc2)cc1OC,-6.0%,-8.9%,6.6%,/,-3.7%,-16.6%,/,-7.9%
Cc1cc(C)nc(Nc2n[nH]c(-c3ccc(C(C)(C)C)cc3)n2)n1,-14.9%,1.0%,0.7%,/,0.7%,-0.7%,/,?
Cc1cccc(-c2cc(C(=O)NCCCn3ccnc3)c3ccccc3n2)c1,/,-3.8%,-1.4%,-4.5%,/,/,-6.4%,/
Cc1cc2c(C)nc(-c3ccccc3)nc2o1,72.9%[activator],-2.3%,3.8%,-0.5%,4.8%,29.2%,-5.7%,1.8%[46.1 µM]
COCCOC(=O)/C(C#N)=C/c1cn(Cc2ccccc2)nc1-c1cccnc1,-4.5%,-4.3%,0.4%,/,0.4%,-1.6%,/,9.1%
CCOC(=O)C1(Cc2ccc(OC)cc2)CCN(C(=O)CN2CCCCC2=O)CC1,-5.4%,-1.7%,-1.1%,/,5.3%,11.9%,/,0.1%[46.1 µM]
O=C(O)C1CCCCC1C(=O)Nc1ccc2c(c1)OCCO2 (stereo not drawn),?,0.4%,2.9%,3.0%,2.6%,1.9%,0.7%,15.4%
O=C(NC(=S)Nc1cccnc1)c1cccc(Br)c1,0.0%,-38.7%,-8.2%,/,-3.4%,1.4%[46.1 µM],/,?
Cc1cc(NC(=O)CSCC(=O)Nc2nc3ccccc3[nH]2)no1,2.0%,/,1.7%,/,-2.8%,-4.0%,/,?
COC(=O)c1ccc(-c2nc(CN3CCN(Cc4cccc(C)c4)CC3)c(C)o2)cc1,-3.6%,?,-0.4%,/,-17.9%,/,/,/
CCOC(=O)C1=C(CN2CCN(c3ccc(F)cc3)CC2)NC(=O)NC1c1cccs1 (stereo not drawn),-27.2%,-39.1%,1.4%,-2.5%,23.5%,-22.1%,-4.9%,?
CCOC(=O)C1(CC)NC(c2ccc(OC)cc2OC)C2C(=O)N(C)C(=O)C21 (stereo not drawn),-2.2%,0.1%,0.1%,/,6.5%,1.4%[46.1 µM],/,0.1%[46.1 µM]
CCC1Oc2ccc(C)cc2N(CC(=O)NCCCN2CCCC2)C1=O (stereo not drawn),-13.6%,6.1%,-2.4%,/,-5.7%,31.3%[46.1 µM],/,?
Cc1cc2nn(-c3ccc(Cl)cc3)nc2cc1NC(=O)C(C)C,-6.9%,/,/,-0.2%,/,?,9.6%,/
C=CCn1c(SCc2ccc(C(=O)NCCO)cc2)nc2ccccc2c1=O,-21.3%,-7.8%,-5.1%,/,-22.4%,/,/,/

# Single values from the list.
# In NS1 inh, C=CCn1c(SCc2ccc(C(=O)NCCO)cc2)nc2ccccc2c1=O is entered as -7.8%
# In 2A StopGo, O=C(NC(=S)Nc1cccnc1)c1cccc(Br)c1 is entered as 0.0%
# In 2A StopGo, CCOC(=O)C1(CC)NC(c2ccc(OC)cc2OC)C2C(=O)N(C)C(=O)C21 (stereo not drawn) is entered as -2.2%

# Next part:
SMILES,2A StopGo,NS1 inh,SARS PLP yeast,Cruzain inh Det,RE007 growth inh,Lassa entry inh,Cruzain noTriton,MARV entry inh
CCCN1C(=O)/C(=C/c2ccc(C)o2)SC1=Nc1ccc(OC)cc1,-20.3%,-1.5%,-2.1%,-6.2%,-2.6%,?,3.9%,?
O=c1[nH]c(=S)n(C2CC2)c(O)c1C=Nc1cccc(C(F)(F)F)c1,-9.4%,6.9%,23.4%,-8.0%,-17.8%,4.9%,-9.0%,-3.2%
CO/N=C/c1c(-c2ccc(Cl)cc2)nc2cc(C)ccn12,6.4%,/,12.6%,/,-22.1%,-25.1%[46.1 µM],/,-3.1%[46.1 µM]
COc1ccc(C(=S)Nc2ccc(N(C)C)cc2)cc1,51.0%[activator],-46.8%,-1.9%,1.7%,32.1%,?,-13.9%,?
O=C(Nc1ccccc1N1CCOCC1)c1cccc2c(Br)cccc12,-3.6%,8.1%,-0.5%,/,-21.7%,/,/,/
CCCCCC(=O)N1CC2(CC(c3cccc(NC(=O)CC(c4ccccc4)c4ccccc4)c3)=NO2)C[C@@H]1C(N)=O (stereo partly drawn),?,-7.4%,1.1%,/,-4.2%,/,/,/
COc1ccc(C(=S)N2CCN(c3cccc(Cl)c3)CC2)cc1,-7.5%,-1.4%&-0.8%,1.6%&-0.2%,/,-4.9%,-6.8%,/,4.3%&4.3%
CC(N)Cc1c[nH]c2ccc(O)cc12 (stereo not drawn),-17.0%&-1.3%,-3.8%,/,1.8%,-9.9%,16.6%,5.0%,?
Cc1ccc(NS(=O)(=O)c2cc(C(=O)Nc3cccnc3)ccc2C)cc1,75.2%[activator],-10.8%,-4.7%,/,1.9%,-17.3%,/,-22.8%
CCn1c(C)c(C)c2cc(C(=O)NCCCN3CCCCC3C)ccc21 (stereo not drawn),-5.6%&0.8%,9.2%,?,7.4%,-12.5%,-18.4%[46.1 µM],-1.6%,/
O=C(O)C1CC1C(=O)Nc1nc2c(Cl)cccc2s1 (stereo not drawn),-9.9%,6.9%,2.2%,/,6.3%,/,/,/
CCOC(=O)C1=C(N)N2C(=O)C(C)SC2=C(C(=O)OC)C1c1ccccc1OC (stereo not drawn),0.0%,-47.3%,-29.7%,-7.7%,67.3%,5.0%,24.9%,?
CCOC(=O)c1ccccc1NC(=O)NCc1cccn1Cc1ccc(F)cc1,-18.7%,/,/,-10.0%,/,?,-2.0%,?
C=CCNC(=S)NC(CC(=O)OC)c1ccc2c(c1)OCO2 (stereo not drawn),-9.0%,3.5%,-0.8%,/,10.5%,14.4%[46.1 µM],/,23.4%[46.1 µM]
COc1ccccc1-c1cc(C(=O)NCCc2ccccc2)no1,56.8%&34.2%[activator],-75.9%,7.8%,-9.3%&-14.7%,-7.4%,?,1.0%&-11.9%,?
Cc1c(C(=O)C(=O)N2CCCc3ccccc32)c2ccccc2n1C,6.1%,0.0%,17.6%,-8.7%,-2.5%,?,-4.1%,?
COc1ccc(NC(=O)c2ccc3c(c2)CCN3S(=O)(=O)c2ccccc2)c(OC)c1,-0.3%,5.7%,10.5%,/,-1.9%,/,/,/
COc1ccc2oc(C)c(C(N)=O)c2c1,-16.8%,-6.9%,2.2%,-3.7%,-1.9%,2.5%,-9.8%,-4.3%
O=c1c(=O)n(-c2ccc(F)c(F)c2)ccn1Cc1ccc(F)cc1Cl,0.4%,/,/,-1.4%,/,-14.8%[46.1 µM],1.5%,/
CCn1c(C)[n+](CC(O)COCC2CC=CCC2)c2ccccc21 (stereo not drawn),?,12.3%,-0.4%,-1.0%,-13.7%,-20.1%,-6.1%,-21.0%
COc1ccc(Nc2nc(N)nc(CSC(=S)N3CCCCC3C)n2)cc1 (stereo not drawn),-24.5%,12.1%,12.7%,/,-12.3%,7.08µM*,/,?
O=C(c1[nH]ncc1-c1ccccc1)C1CO1 (stereo not drawn),-3.2%,1.1%,-0.1%,/,-6.5%,-26.3%,/,-12.3%[46.1 µM]
COc1ccccc1C(=O)N(CN1CCCC1=O)c1cccc(Cl)c1,-5.7%,-7.5%,4.7%,2.0%,11.4%,2.0%,-2.0%,-16.2%
CCOc1ccc(N2CC(C(=O)N3CCCc4ccccc43)CC2=O)cc1 (stereo not drawn),11.9%,13.2%,-0.4%,/,2.1%,-13.4%[46.1 µM],/,-9.9%[46.1 µM]
CCn1c(C(=O)N2CCC(Cc3ccccc3)CC2)cc2sccc21,-1.9%,3.1%,-20.6%,-4.1%,4.2%,17.7%,4.1%,?

# Entries of single compounds from above. Order of screens: 2A StopGo, NS1 inh, SARS PLP yeast, Cruzain inh Det, RE007 growth inh, Lassa entry inh, Cruzain noTriton, MARV entry inh
# `CCCN1C(=O)/C(=C/c2ccc(C)o2)SC1=Nc1ccc(OC)cc1` as listed: -20.3%, -1.5%, -2.1%, -6.2%, -2.6%, ?, 3.9%, ?
# `C=CCNC(=S)NC(CC(=O)OC)c1ccc2c(c1)OCO2` (stereo not drawn) as listed: -9.0%, 3.5%, -0.8%, /, 10.5%, 14.4%[46.1 µM], /, 23.4%[46.1 µM]
# `CCCCCC(=O)N1CC2(CC(c3cccc(NC(=O)CC(c4ccccc4)c4ccccc4)c3)=NO2)C[C@@H]1C(N)=O` (stereo partly drawn) as listed: ?, -7.4%, 1.1%, /, -4.2%, /, /, /
